NPR1 antag – human Npr1 receptor antagonism; P16066; HEK293 hNpr1 GloSensor cGMP, ANP-stimulated luminescence; Potency, µM (series often up to 46.3 µM), for the others: at the top dose activity change, negative = inhibition, usual class: inhibitors; 76,000 tested, 1.6% active; active = well fitted inhibition curve with a large enough effect; inconclusive = small, poorly fitted or top-dose-only effect; inactive = no such curve, though single readings can be large or run the other way;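 note: nearly all actives have a fitted effect of over 60% in size; nearly all hits also lower the signal before the agonist is added; a reference antagonist and vehicle were the controls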
Target sequence (P16066 whole entry, looked up): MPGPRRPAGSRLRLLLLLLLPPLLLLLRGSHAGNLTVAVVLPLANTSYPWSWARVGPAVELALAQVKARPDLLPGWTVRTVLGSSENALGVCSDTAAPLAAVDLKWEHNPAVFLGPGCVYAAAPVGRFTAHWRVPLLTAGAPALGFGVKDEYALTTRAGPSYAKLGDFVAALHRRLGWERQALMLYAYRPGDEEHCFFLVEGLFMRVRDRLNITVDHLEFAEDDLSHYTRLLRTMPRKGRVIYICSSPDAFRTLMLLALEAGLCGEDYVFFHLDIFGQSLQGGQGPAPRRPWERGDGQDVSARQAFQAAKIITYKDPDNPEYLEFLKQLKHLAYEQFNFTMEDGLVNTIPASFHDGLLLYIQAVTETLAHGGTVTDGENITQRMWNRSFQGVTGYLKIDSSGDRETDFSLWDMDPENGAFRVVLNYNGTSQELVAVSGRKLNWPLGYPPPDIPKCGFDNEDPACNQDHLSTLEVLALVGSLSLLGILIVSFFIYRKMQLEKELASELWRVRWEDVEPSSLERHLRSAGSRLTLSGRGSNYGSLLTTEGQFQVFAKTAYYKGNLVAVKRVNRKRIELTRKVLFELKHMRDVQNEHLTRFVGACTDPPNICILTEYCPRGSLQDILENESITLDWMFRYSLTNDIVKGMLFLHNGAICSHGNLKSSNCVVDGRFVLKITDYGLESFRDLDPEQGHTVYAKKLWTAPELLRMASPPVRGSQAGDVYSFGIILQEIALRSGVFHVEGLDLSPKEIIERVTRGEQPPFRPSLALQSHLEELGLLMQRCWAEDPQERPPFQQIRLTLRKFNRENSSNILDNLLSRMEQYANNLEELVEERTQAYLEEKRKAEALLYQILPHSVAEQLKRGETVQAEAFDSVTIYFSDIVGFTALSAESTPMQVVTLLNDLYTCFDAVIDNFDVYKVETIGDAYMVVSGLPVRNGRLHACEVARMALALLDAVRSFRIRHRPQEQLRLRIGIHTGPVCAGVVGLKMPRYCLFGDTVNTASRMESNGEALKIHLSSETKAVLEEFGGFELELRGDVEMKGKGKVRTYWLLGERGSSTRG
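HEK293 cells stably expressing human Npr1 and cGMP GloSensor pGS-40F, loaded 2 h with 2% GloSensor reagent, given compound 30 min at room temperature. Luminescence read before and 20 min after 0.1 nM hNppA.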
Active calls of the source: *; ? = inconclusive; [ ] = another dose, or the depositor's remark. % is set by controls: 0 for no effect and ±100 for the full control effect; potency is the fitted concentration of half-maximal effect. This is a subset; rates above refer to the full screens.

SMILES	NPR1 antag
CC1(C)[C@H]2CC[C@@H](CNC(=O)c3ccccn3)[C@@H]1C2	2%[70.6 µM]
Cc1ccc(NC(=O)N2CCCC(c3nccn3Cc3ccncc3)C2)cc1C (stereo unspecified)	3%
COc1ccccc1N1CCN([C@@H]2[C@H](O)[C@H](CO)O[C@@H]2CNC(=O)Nc2ccccc2)CC1	8%
COc1ccc(CNC(=O)CC[C@@H]2CNC(=O)[C@@H]3C[C@H](NCc4cn(C)c5ccccc45)CN23)cc1	5%
CC(C)CN(C1CCOCC1)C1CN(Cc2cncs2)C1	2%
Cc1ncoc1C(=O)N1CC(F)(F)C[C@H]1c1nc(C2CC2)no1	5%
O=C(NCc1c[nH]c2ncccc12)c1cccc(Cl)c1	0%[70.6 µM]
Cc1nc2ccc(C(=O)N3CC[C@](C)(O)[C@@H](O)C3)cc2nc1C	4%
CC1=NS(=O)(=O)N(C)C=C1C(=O)OCc1noc(-c2ccccc2F)n1	11µM*
COCCOc1ccc(C(=O)N[C@@H]2CN(C(=O)Nc3ccccc3)CCC[C@H]2O)cc1	-13%[70.6 µM]
O=C(NC1CCCN(c2cc(-c3ccc(F)cc3)[nH]n2)C1)c1ccc2c(c1)OCO2 (stereo unspecified)	-17%
Cc1noc(C)c1S(=O)(=O)N1CCC(c2noc(-c3cccnc3)n2)C1 (stereo unspecified)	1%
Cc1ccccc1S(=O)(=O)N1CCN(C(=O)N2CC3CC(C2)[C@H]2CCCC(=O)N2C3)CC1 (stereo partly specified)	2%
CC1=NOC2(CCN([S+](=O)([O-])c3ccccc3)C2)C1 (stereo unspecified)	7%[70.6 µM]
COc1ccc(CC(=O)Nc2ccc(=O)n3c2[C@@H]2C[C@@H](CN(S(=O)(=O)c4ccccc4)C2)C3)cc1	2%
Cc1cc(Cl)ccc1NC(=O)N1C[C@@H](F)C[C@H]1C(=O)N1CCc2ccccc2C1	3%
O=C(Nc1ccc(Cl)cc1Cl)c1ccc2ccnn2c1	-5%[70.6 µM]
O=C(NC1CC1)[C@@H]1C[C@H](Oc2cccnc2)CN1C(=O)c1ccc2ncccc2c1	2%
COc1ccc(C(=O)N2CCCN(c3cc(-c4ccc(OC)cc4)[nH]n3)CC2)cc1	-21%
CNC(=O)[C@H]1C[C@H](Oc2ccccc2)CN1C(=O)CCc1c[nH]c2ccccc12	-13%
Cc1cc(C(=O)N2CCC3(CC2)CC(N(Cc2ccc(F)cc2)C2CC2)CCO3)n(C)n1 (stereo unspecified)	?
CCOCc1nc(C2CCCN(C(=O)Cc3cccc(C)c3)C2)no1 (stereo unspecified)	-13%
COc1cc2c(cc1OC)C(CNC(=O)C(C)C)N(C(=O)Nc1ccc(C)cc1)CC2 (stereo unspecified)	-4%
COc1ccc(C(=O)N2CCN(C(=O)c3nnn4c3COC(c3ccc(F)cc3)C4)CC2)cc1 (stereo unspecified)	-16%
O=C(NCc1cccc(F)c1)c1nc2c(o1)CCN(Cc1cccc(F)c1F)CC2	?
COc1cccc(COC2CN(CC(C)C)C(=O)CN(C(=O)c3snnc3C)C2)c1 (stereo unspecified)	-2%
OC1CCN(c2cc(C3CC(Nc4ncnc5sccc45)C3)ncn2)C1 (stereo unspecified)	-14%
COc1cccc(CN[C@H]2[C@H](O)[C@H](O)C[C@@H]2c2ccc(N3CCOCC3)nc2)c1	-5%[70.6 µM]
O=C(Cc1cccc(F)c1)N1CCC(n2cc(-c3nc(C4CC4)no3)nn2)CC1	-20%
COc1ccc(N2CCC(NC(=O)c3cccc(N(C)C)c3)C2=O)cc1 (stereo unspecified)	-9%
CC(C)(C)CC(=O)N1CCC2(CC1)OCC(C(=O)N1CCCC1)N2C(=O)c1ccc(F)cc1 (stereo unspecified)	9%
O=C1NC2(CCN(C(=O)c3cccnc3)C2)Oc2ccccc21 (stereo unspecified)	0%[70.6 µM]
O=C(Nc1ccccc1)Nc1ccc(=O)n2c1[C@@H]1C[C@@H](CN(C(=O)Nc3ccc(F)cc3)C1)C2	-2%
CCOC(=O)C1CCN(C(=O)C2COC3(CCCCC3)N2C(=O)c2cc(F)cc(F)c2)CC1 (stereo unspecified)	1%
O=C1NC[C@H]2CN(Cc3cccc(OC(F)(F)F)c3)CCN12	9%[70.6 µM]
Cn1nccc1C(=O)N1CC(c2ncc3c(-c4cccc(C(F)(F)F)c4)nccn23)C1	-1%[70.6 µM]
OCC1COCCN(Cc2csc(-c3ccc(C(F)(F)F)cc3)n2)C1 (stereo unspecified)	-26%
CN1c2cc(C(=O)N3CCN(c4ccccc4)CC3)ccc2C(=O)N2CCCCCC21 (stereo unspecified)	-1%
Cc1ccc(F)cc1CC(=O)N1C[C@@H](CN2CCOCC2)[C@@H](CO)C1	-1%
O=C1c2c(nc(COc3cc(F)cc(F)c3)n2Cc2ccccc2)NCCN1Cc1ccccc1F	-19%

Copied from the list.
Result of O=C1c2c(nc(COc3cc(F)cc(F)c3)n2Cc2ccccc2)NCCN1Cc1ccccc1F under NPR1 antag: -19%
Result of OCC1COCCN(Cc2csc(-c3ccc(C(F)(F)F)cc3)n2)C1 (stereo unspecified) under NPR1 antag: -26%
Result of CCOC(=O)C1CCN(C(=O)C2COC3(CCCCC3)N2C(=O)c2cc(F)cc(F)c2)CC1 (stereo unspecified) under NPR1 antag: 1%
Result of OC1CCN(c2cc(C3CC(Nc4ncnc5sccc45)C3)ncn2)C1 (stereo unspecified) under NPR1 antag: -14%
Result of O=C1NC2(CCN(C(=O)c3cccnc3)C2)Oc2ccccc21 (stereo unspecified) under NPR1 antag: 0%[70.6 µM]
Result of COc1cccc(COC2CN(CC(C)C)C(=O)CN(C(=O)c3snnc3C)C2)c1 (stereo unspecified) under NPR1 antag: -2%

(more compounds)
SMILES	NPR1 antag
Cc1ocnc1C(=O)N1CCC2(CC1)CN(CC(C)c1ccccc1)C(=O)O2 (stereo unspecified)	-1%
CC(C)NC(=O)Cn1ccn2nc(-c3ccccc3)c(CO)c2c1=O	0%
COc1ccc(-c2nc(-c3ccccc3)nc3c2CN(C(=O)C2CC2)CC3)cc1	-9%
C[C@]1(O)CCN(C(=O)Cc2ccc(-n3cnnn3)cc2)C[C@@H]1O	-5%
O=C(NC1CCCC1)c1cc2cn(C3CC3)cc2s1	-13%
O=C(Nc1cccc(-c2nnc3n2CCCC3)c1)c1ccc(F)cc1F	2%
COc1ccc(N2CC(C(=O)NCc3cccs3)NC2=O)cc1 (stereo unspecified)	15%[70.6 µM]
Cc1ccsc1C(=O)N1CCC(c2n[nH]c(=O)n2Cc2ccc(F)cc2)CC1	3%
O=C(NCc1c[nH]c(=O)[nH]c1=O)C1CCN(Cc2ccco2)CC1	4%
CC(C)CNC(=O)CCC1CCN(S(=O)(=O)c2ccccc2F)CC1	3%
CC1CCN([C@@H]2[C@H](O)[C@H](CO)O[C@@H]2CN(Cc2ccc(F)cc2)Cc2ccc(F)cc2)CC1	-14%
CC(=O)N1CCc2sc(C(=O)NCc3cccc(Cl)c3)cc2C1	3%
NC(=O)NCC(=O)N1CCC2(CCCN(CCCc3ccccc3)C2)C1 (stereo unspecified)	8%
O=C(NC1CC1)[C@H]1O[C@H](CCN2CCOCC2)CC[C@@H]1O	0%[70.6 µM]
CC1=C[C@@H](CNS(=O)(=O)c2cccc(C#N)c2)[C@H](C(C)C)C[C@H]1CC(=O)N(C)Cc1cccnc1	3%
CCC(=O)N1CCN(C2CCN(CCC(C)C)C2=O)CC1 (stereo unspecified)	1%
COc1ccc(CN2C[C@H]3CN(Cc4ccc([N+](=O)[O-])cc4)CCN3C2=O)cc1	22µM*
COc1ccc(NC(=O)c2ccc3c(c2)N(C)C2CCCCN2C3=O)cc1F (stereo unspecified)	-5%
Cc1cccc(CCNC(=O)c2noc(-c3ccc4c(c3)OCO4)n2)c1	3%
CC1=C[C@@H](CN)[C@H](C(C)C)C[C@H]1Cc1nc2ccc(C)cc2[nH]1	-18%[70.6 µM]
CCOc1cc(=O)n2c(c1C(=O)Nc1ccc(C#N)cc1)CCCC2	2%
COCCn1c(C)cnc1CCNC(=O)C1CCOCC1	-3%
Cc1cc(F)ccc1NC(=O)C1CN(S(=O)(=O)C2CC2)CC12CCCCC2 (stereo unspecified)	2%
COc1cccc(CN2CCNc3cc(-c4ccnc(C)c4)ncc3C2)c1	-4%[70.6 µM]
CC(C)CNC(=O)N1CCC(N2C(=O)C(OCC3CC3)C23CCCCC3)CC1 (stereo unspecified)	-12%
Cc1cc(C)cc(C(=O)NC(C)C(=O)N2CCN(c3ccccn3)CC2)c1 (stereo unspecified)	3%
Cc1noc(-c2cn(C3CCN(C(=O)c4ccoc4)CC3)nn2)n1	19%
COCC1CN(C(C)=O)CC12CCN(C(=O)c1cccc(C)c1)CC2 (stereo unspecified)	1%
COc1cc(OC)cc(C(=O)NC2CCCN(c3cc(-c4ccccc4)[nH]n3)C2)c1 (stereo unspecified)	0%
COc1ccccc1S(=O)(=O)NC1CCCN(C2CCCCCC2)C1 (stereo unspecified)	1%
COc1cccc(S(=O)(=O)N2CCC3(CC2)CC2C(=O)NCCN2C3)c1 (stereo unspecified)	0%
CCOc1ccccc1CN1CCNC(=O)C1CC(=O)NCc1ccco1 (stereo unspecified)	7%
COCc1nc2nccc(-c3ccc4c(c3)CC(C)O4)n2n1 (stereo unspecified)	1%
Cn1cc(C(O)c2nc(Nc3ccc(OC(F)(F)F)cc3)n[nH]2)cn1 (stereo unspecified)	1%[70.6 µM]
Cn1c(Cn2cccn2)nnc1C1CCCN(Cc2nc(C(N)=O)no2)C1 (stereo unspecified)	0%
COCCNc1ncc(-c2ccc(OC)c(OC)c2)c2c1OCC2	1%[70.6 µM]
CCCn1nc(C)c(-c2cc(C(=O)N3CCc4c(nc5cc(-c6ccccc6)[nH]n5c4=O)C3)[nH]n2)c1C	-9%
CC(=O)N1CCC(C(=O)N2CCC(N3CC(OCC4CC4)C34CCOCC4)CC2)CC1 (stereo unspecified)	3%
O=C(Cc1ccccc1)NCC1CN(Cc2cccnc2)CC12CN(c1ccccc1)C2 (stereo unspecified)	-1%[70.6 µM]
COc1cccc(-c2cc3c(ccn3Cc3cccnc3)c(C3=CCOCC3)n2)c1OC	0%[70.6 µM]

NPR1 antag: hit marks shown above
SMILES	NPR1 antag
CC1=NS(=O)(=O)N(C)C=C1C(=O)OCc1noc(-c2ccccc2F)n1	11µM*
COc1ccc(CN2C[C@H]3CN(Cc4ccc([N+](=O)[O-])cc4)CCN3C2=O)cc1	22µM*

7 entries already listed, sorted by heavy-atom count, highest first:
SMILES	NPR1 antag
O=C(Cc1ccccc1)NCC1CN(Cc2cccnc2)CC12CN(c1ccccc1)C2 (stereo unspecified)	-1%[70.6 µM]
COc1cc(OC)cc(C(=O)NC2CCCN(c3cc(-c4ccccc4)[nH]n3)C2)c1 (stereo unspecified)	0%
CC(C)CNC(=O)N1CCC(N2C(=O)C(OCC3CC3)C23CCCCC3)CC1 (stereo unspecified)	-12%
Cc1cc(C)cc(C(=O)NC(C)C(=O)N2CCN(c3ccccn3)CC2)c1 (stereo unspecified)	3%
COCC1CN(C(C)=O)CC12CCN(C(=O)c1cccc(C)c1)CC2 (stereo unspecified)	1%
Cc1noc(-c2cn(C3CCN(C(=O)c4ccoc4)CC3)nn2)n1	19%
COCCn1c(C)cnc1CCNC(=O)C1CCOCC1	-3%

Next section
SMILES	NPR1 antag
Cc1ccc(C)c(-c2cc3c(=O)n(CCNC(=O)c4ccccc4Cl)ccn3n2)c1	-18%
COC(=O)CNC(=O)N1CC(c2nnc(-c3ccncc3)o2)C2(CCOCC2)C1 (stereo unspecified)	-5%
O=C(Cn1cccc1-c1nc(-c2ccc(F)cc2)no1)NCc1ccc(F)cc1	-9%
O=C(NCC12CCCC=C1N(Cc1ccccc1)C(=O)CC2)C1CCC1 (stereo unspecified)	1%
CCNC(=O)[C@@H]1C[C@H](n2cc(CN(C)C(=O)c3cccc(C)c3C)nn2)CN1	3%
CCN(CC)C(=O)[C@H]1CCC[C@H]1NC(=O)c1ccncc1	1%
O=C(Nc1cccc(C(F)(F)F)c1)O[C@@H]1CO[C@H]2[C@@H]1OC[C@@H]2NC(=S)Nc1ccc(Cl)cc1	-26%
Clc1ccc(-c2nnc([C@H]3CCN(Cc4ccco4)C3)o2)cc1	-6%[70.6 µM]
CCn1ccc(C(=O)N[C@@H]2CN(S(C)(=O)=O)C[C@H]2CN(C)C)n1	9%
COc1ccc(Cl)cc1C(=O)N1CCC(Oc2ccc3c(cnn3CCC(=O)O)c2)CC1	-9%
CC1=NS(=O)(=O)N(C)C=C1C(=O)OCc1nc(C2CC2)no1	-5%
O=C1CCN(C(=O)CCc2ccccc2)CCCOCCN1	-1%
O=C(NCc1nncn1CCc1ccccc1)C1CC2(CCNCC2)CN1 (stereo unspecified)	2%
CNC(=O)N1CCC(C2CCN(S(=O)(=O)Cc3ccc(C)cc3)C2)CC1 (stereo unspecified)	14%
N#Cc1ccc(C(=O)NC2CCN(c3cc(-c4ccc(Cl)cc4)[nH]n3)C2)cc1 (stereo unspecified)	?
CC(C)CNC(=O)c1coc(COc2ccc3c(c2)C(c2cccc(F)c2)N(C(=O)C2CC2)CC3)n1 (stereo unspecified)	?
Cc1ccc(C(=O)NCc2nnc3c(-c4nc(C(C)C)no4)cccn23)cc1	-1%
Cc1ccc(C)c(C(=O)NC2CCN(C(=O)c3cc4c(=O)[nH]c(C)cn4n3)CC2)c1	-2%
CC(C)CCN1CCC(C2CCN(C(=O)c3ccncc3)CC2)C1 (stereo unspecified)	-2%
CCCC(=O)NC1CCN(c2cnn(Cc3ccccc3)c(=O)c2)CC1	2%
Cc1ccccc1C(=O)N1CCC(c2nn(-c3ccc(Cl)cc3)c(=O)[nH]2)CC1	-5%
COc1nccnc1NC1CCN(C(=O)NCc2ccccc2)CC1	5%
Cc1cn(CC(=O)N2CCOCC(O)C2)c(=O)[nH]c1=O (stereo unspecified)	10%

Assay outcomes: PubChem, National Center for Advancing Translational Sciences (NCATS)
